High-throughput results: PubChem BioAssay, Broad Institute
BJeLR viab HTS – compounds reducing viability of BJeLR cells; BJeLR fibroblasts viability, CellTiterGlo ATP luminescence, 48 h; HRASV12, hTERT and SV40 LT/ST transformed; viability loss activity score, % (concentration not given with the values); 30,000 compounds, 0.64% hits; in the data active = viability loss activity score above about 50%; about a fifth of its hits are not listed in these tables;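 also: higher score means fewer live cells and less ATP luminescence; stock transfer was 50 or 100 nL into about 30 µL; 0% = vehicle wells and 100% = a reference killing control; one replicate is shown; the record names a cut of 85%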
A1 inhib – blocks A1 activity | MEF A1-2A-BIM cells, caspase-Glo luminescence, 3 h; percent of clofoctol signal, DMSO as zero | caspase activation, % (test concentration not listed) | 21,000 compounds, 0.51% hits | AID 2241;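 active = most replicate scores above 10, or exactly half above 10 with mean activity above 10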;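 also: effector caspase 3 and 7 activity cleaving a DEVD luciferin substrate; 50 nL library stock added to about 30 µL; numbers are from one replicate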
Starred values were filed as active, the others as inactive; . = no result given. These rows are one share of the data, so the mix of outcomes need not match the whole.

SMILES	BJeLR viab HTS	A1 inhib
C[C@H]1CN([C@@H](C)CO)C(=O)c2cc(NC(=O)CCCCCC(=O)Nc3ccccc3N)ccc2O[C@H]1CN(C)S(=O)(=O)c1cn(C)cn1	-4.0	.
CC(C)NC(=O)Nc1cccc2c1O[C@@H](CN(C)C(=O)Nc1cccc3ccccc13)[C@H](C)CN([C@H](C)CO)C2=O	3.9	.
CO[C@H]1C=C[C@@](C)(O)/C=C/C(=O)O[C@H](C)[C@@H](C)CC/C=C\1C	2.1	0.3
CC1CN(C(=O)CCC(=O)NCc2ccco2)c2ccccc2O1 (stereo not given)	-3.0	-0.3
C[C@@H]1CN([C@H](C)CO)C(=O)c2cc(NC(=O)Nc3ccc(F)cc3)ccc2O[C@@H]1CN(C)Cc1ccc(-c2ccccc2)cc1	-6.7	0.2
Cc1ccc(-n2c(C)cc(C=C3C(=O)c4ccccc4C3=O)c2C)cc1	-5.0	-6.5
CSc1sc(C(=O)NN)c2c1C1(CCC2)SCCS1	1.5	-0.6
CC(C)NC(=O)Cn1cc(C(=O)C(C)(C)C)c2ccccc21	6.9	.
CCOc1ccc2nc(SCc3c(F)c(F)c(F)c(F)c3F)[nH]c2c1	5.0	.
N#Cc1cc2c(nc1SCC(=O)N1CCCCC1)CCCC2	-3.6	0.6
CCc1ccc(NC(=O)Cn2c(C(=O)OC)cc3oc4ccccc4c32)cc1	-0.5	0.4
C[C@@H]1CN([C@H](C)CO)C(=O)c2cc(NC(=O)CCN3CCOCC3)ccc2O[C@H]1CN(C)S(=O)(=O)c1ccccc1	-2.2	0.1
Cc1noc(C)c1NC(=O)Nc1cccc2c1O[C@@H](CN(C)C(=O)Nc1c(C)noc1C)[C@H](C)CN([C@@H](C)CO)C2=O	-5.8	.
Cc1ccc(S(=O)(=O)N(C)C[C@H]2Oc3c(NS(=O)(=O)c4ccccc4)cccc3C(=O)N([C@H](C)CO)C[C@@H]2C)cc1	6.0	.
Cc1ccc(S(=O)(=O)Nc2ccc3c(c2)C(=O)N([C@H](C)CO)C[C@H](C)[C@@H](CN(C)C(=O)NC(C)C)O3)cc1	-0.4	-0.4
C[C@@H]1CN([C@H](C)CO)C(=O)c2cc(NS(C)(=O)=O)ccc2O[C@H]1CN(C)Cc1ccc(-c2ccccc2)cc1	3.6	-0.5
Cc1cccc(-c2nc(NCCCN3CCOCC3)c3ccccc3n2)c1	-4.0	.
CCCCN(C)C(=O)c1c[nH]c2ccc(S(=O)(=O)Nc3cccc(OC)c3)cc2c1=O	0.1	0.8
CCOC(=O)N1CCN(C(=O)C2CC(=O)N(c3ccc(OC)cc3)C2c2ccc(OC)cc2)CC1 (stereo not given)	-0.5	.
O=C(c1noc2c1CCCC2)N(C1CCCCC1)C1CCCCC1	5.0	.
CCOC(=O)N1CCN(C(=O)c2ccc(CNS(=O)(=O)c3ccc(NC(C)=O)cc3)cc2)CC1	2.5	.
CCOC(=O)Cc1nn(Cc2nc(-c3ccccc3)cs2)c(=O)c2ccccc12	3.7	0.2
NC(=O)C1CCN(C(=O)Nc2cc3ccccc3s2)CC1	2.0	0.6
CC(NC(=O)C1CCN(C(=O)c2cc3sccc3n2Cc2ccc(F)cc2)CC1)c1ccccc1 (stereo not given)	-0.8	0.8
C[C@H](CO)N1C[C@H](C)[C@@H](CN(C)CC2CCCCC2)Oc2c(NS(=O)(=O)c3cccs3)cccc2C1=O	1.6	.

The listing continues.
SMILES	BJeLR viab HTS	A1 inhib
COc1ccc(S(=O)(=O)Nc2cccc3c2O[C@@H](CN(C)S(=O)(=O)c2c(C)noc2C)[C@@H](C)CN([C@H](C)CO)C3=O)cc1	0.1	.
CC(C)NC(=O)Cn1cc2c(n1)CCCC2	-0.9	0.0
Cc1ccc(Nc2nc(-c3ccc(S(=O)(=O)N4CCCC4)cc3)cs2)cc1	4.7	0.7
C[C@H]1CN([C@@H](C)CO)C(=O)c2cccc(N(C)C)c2O[C@@H]1CN(C)C(=O)Nc1ccc(F)cc1	1.4	.
OC1(c2ccc(Cl)cc2)CCN(Cc2c[nH]c3ccccc23)CC1	7.1	0.3
C[C@H](CO)N1C[C@H](C)[C@H](CN(C)CC2CC2)Oc2c(NS(C)(=O)=O)cccc2C1=O	6.4	.
O=C1c2ccccc2C(=O)N1CCCn1c(=O)oc2ccccc21	-1.6	0.6
CCc1cc2c3c(c(=O)oc2cc1OCC(=O)OC(C)(C)C)CCCC3	9.1	-0.3
Cc1noc(C)c1NC(=O)N(C)C[C@@H]1Oc2ccc(NC(=O)Nc3ccc(C(F)(F)F)cc3)cc2C(=O)N([C@H](C)CO)C[C@H]1C	-2.9	0.4
COc1ccc(S(=O)(=O)Nc2cccc3c2O[C@H](CN(C)Cc2ccc(-c4ccccc4)cc2)[C@H](C)CN([C@@H](C)CO)C3=O)cc1	-0.7	.
C[C@H]1CN([C@@H](C)CO)C(=O)c2cccc(NS(=O)(=O)c3ccccc3)c2O[C@H]1CN(C)CC1CC1	9.5	.
COc1ccc(C2OCC3C2CO[C@H]3c2ccc(OC)c(OC)c2)cc1OC (stereo not given in full)	5.0	-0.2
Cc1ccccc1C(=O)c1cccn1CC(=O)NC(C)c1ccc2c(c1)OCCO2 (stereo not given)	-3.3	1.9
CNC[C@@H]1Oc2ccc(NC(=O)CCCN(C)C)cc2C(=O)N([C@H](C)CO)C[C@H]1C	3.2	0.2
Cc1noc(C)c1NC(=O)N(C)C[C@H]1Oc2c(NC(=O)Nc3ccccc3)cccc2C(=O)N([C@@H](C)CO)C[C@@H]1C	1.8	.
Cc1ccc(S(=O)(=O)N(C)C[C@H]2Oc3ccc(NC(=O)Nc4ccc(F)cc4)cc3C(=O)N([C@@H](C)CO)C[C@H]2C)cc1	4.1	1.3
O=C(COc1ccccc1Br)N1CCCCC1	4.7	0.1
C[C@@H]1CN([C@H](C)CO)C(=O)c2cc(NC(=O)CCN3CCOCC3)ccc2O[C@@H]1CN(C)S(=O)(=O)c1ccc(F)cc1	-0.7	-1.1
CCc1ccc(NC(=S)N2CCC(N(C)C(C)C)CC2)cc1	3.8	0.3
On1onc2c3cc(-c4ccccc4)nc3ccc21	61*	-2.3
CC(C)Sc1ccc2nnc(-c3ccccn3)n2n1	-4.2	-1.1
Cc1ccc(-n2nc(C)c3c(C)c(CCC(=O)NC(C)c4ccc5c(c4)OCCO5)c(C)nc32)cc1 (stereo not given)	0.3	.
C[C@@H]1CN([C@H](C)CO)C(=O)c2cc(NC(=O)Nc3cccc4ccccc34)ccc2O[C@@H]1CN(C)S(=O)(=O)c1ccccc1	3.7	0.5
CNC[C@H]1Oc2c(NS(=O)(=O)c3ccc(C)cc3)cccc2C(=O)N([C@H](C)CO)C[C@@H]1C	2.8	.
C[C@@H]1CN([C@H](C)CO)C(=O)c2cc(N(C)C)ccc2O[C@H]1CN(C)C(=O)NC1CCCCC1	0.1	-0.4

(further entries)
SMILES	BJeLR viab HTS	A1 inhib
COC(=O)c1sccc1N/C=C(\C#N)S(=O)(=O)C(C)(C)C	-0.9	0.3
CN=c1scc(C)n1NC(=O)Nc1ccc(Cl)cc1	2.8	0.0
COc1ccc(-c2cc(=O)c3cc(OC)ccc3o2)cc1	12	-7.6
Cc1cccn2c(=O)c3cc(C(=O)NCCN4CCOCC4)c(=N)n(C(C)C)c3nc12	2.4	-0.4
CC(C)NC(=O)N(C)C[C@@H]1Oc2ccc(NC(=O)CCN3CCOCC3)cc2C(=O)N([C@H](C)CO)C[C@@H]1C	-1.4	-0.2
C[C@H]1CN([C@@H](C)CO)C(=O)c2cc(NS(=O)(=O)c3ccccc3)ccc2O[C@@H]1CN(C)Cc1ccc(Oc2ccccc2)cc1	-7.1	0.1
COc1ccc2cc3cc(C(=O)NCC4CCN(Cc5cccc(C)c5)CC4)sc3nc2c1	-0.7	.
C[C@@H]1CN([C@H](C)CO)C(=O)c2cccc(NS(=O)(=O)c3cccs3)c2O[C@@H]1CN(C)C	-6.6	.
C[C@@H]1CN([C@H](C)CO)C(=O)c2cccc(NS(=O)(=O)c3ccccc3)c2O[C@H]1CN(C)C(=O)NC1CCCCC1	1.8	.
COc1cc(-c2coc3cc(OCc4ccccc4)c(OC)c(O)c3c2=O)cc(O)c1OC	1.7	-0.4
C=CCN1CCc2nc(N)sc2CC1	2.0	-0.1
COc1ccc(NC(=O)Nc2cccc3c2O[C@H](CN(C)C(=O)NC2CCCCC2)[C@H](C)CN([C@H](C)CO)C3=O)cc1	-2.0	.
COc1ccc(S(=O)(=O)Nc2cccc3c2O[C@@H](CN(C)S(C)(=O)=O)[C@@H](C)CN([C@@H](C)CO)C3=O)cc1	6.5	.
CCC(Sc1nc2n[nH]c(C)c2c(=N)n1-c1cccc(Cl)c1C)C(=O)N(CC)CC (stereo not given)	1.3	-0.2
COc1ccc(/C=C2\SC(N)=NC2=O)cc1O	0.5	0.5
COc1ccc2cc([C@H](C)CO)ccc2c1	-6.9	-0.2
S=C(CN1CCCC1=S)NCCc1ccccc1	9.4	1.1
Cc1ccc(S(=O)(=O)Nc2cccc3c2O[C@H](CN(C)Cc2ccc(Cl)c(Cl)c2)[C@H](C)CN([C@@H](C)CO)C3=O)cc1	-0.1	.
Cc1ccc(-c2csc(-c3ccc(C(F)(F)F)cc3)n2)cc1	0.8	0.2
COc1ccc(NC(=O)N(C)C[C@H]2Oc3ccc(NC(=O)NC4CCCCC4)cc3C(=O)N([C@@H](C)CO)C[C@H]2C)cc1	1.5	0.9
CN(C)c1ccc(-c2[nH]c(=S)[nH]c(=O)c2C#N)cc1	-1.9	-0.6
O=C(Nc1ccccc1C(F)(F)F)NC1CCCCC1	-9.7	.
CCOC(NC(=O)Nc1ccc(Br)cc1)(C(F)(F)F)C(F)(F)F	-0.3	-0.4
CC(=O)OC(C(=O)Nc1cccc(C)n1)c1ccccc1 (stereo not given)	11	.
CC(C)=CCc1c(-c2ccc(O)cc2O)oc2c(CC=C(C)C)c(O)cc(O)c2c1=O	7.7	-0.7

4 entries drawn at random from those above, as already listed:
SMILES	BJeLR viab HTS	A1 inhib
On1onc2c3cc(-c4ccccc4)nc3ccc21	61*	-2.3
Cc1ccc(S(=O)(=O)N(C)C[C@H]2Oc3c(NS(=O)(=O)c4ccccc4)cccc3C(=O)N([C@H](C)CO)C[C@@H]2C)cc1	6.0	.
COc1ccc(S(=O)(=O)Nc2cccc3c2O[C@@H](CN(C)S(C)(=O)=O)[C@@H](C)CN([C@@H](C)CO)C3=O)cc1	6.5	.
CN(C)c1ccc(-c2[nH]c(=S)[nH]c(=O)c2C#N)cc1	-1.9	-0.6

Continuation.
SMILES	BJeLR viab HTS	A1 inhib
OC(CN1CCCCC1)CN1c2ccccc2Sc2ccccc21 (stereo not given)	7.4	.
c1ccc2c(N3CCCCC3)nc(N3CCCCC3)nc2c1	5.1	-0.4
Cc1ccccc1C(=O)Nc1cccc(-c2cn3ccccc3n2)c1	4.7	-1.0
C[C@H](CO)N1C[C@H](C)[C@@H](CN(C)C(=O)Nc2ccccc2)Oc2ccc(NC(=O)Nc3ccc(C(F)(F)F)cc3)cc2C1=O	7.3	-0.6
CC(=O)N/C(=C\c1ccc2ccccc2c1)C(=O)O	3.2	0.1
C[C@@H]1CN([C@@H](C)CO)C(=O)c2cc(NS(=O)(=O)c3ccc(Cl)cc3)ccc2O[C@@H]1CN(C)Cc1ccccc1	2.6	0.2
Cc1cccc(OCCNC(=O)c2cccnc2)c1	0.4	1.1
CNC(=O)c1cc(Br)cc2c1OCC2	1.6	-0.2
COc1ccc(NC(=O)N(C)C[C@@H]2Oc3c(NC(=O)Nc4c(C)noc4C)cccc3C(=O)N([C@@H](C)CO)C[C@@H]2C)cc1	5.5	.
Cc1[nH]c2ccccc2c1SCc1nnc(SCc2ccc(Cl)cc2)n1C	1.7	0.8
CSc1nc2cc(C)nn2c(-c2ccccc2Cl)c1C#N	-0.6	-0.3
C[C@@H]1CN([C@H](C)CO)C(=O)c2cc(NC(=O)Nc3ccc(C(F)(F)F)cc3)ccc2O[C@H]1CN(C)C(=O)Nc1ccc2c(c1)OCO2	-2.9	0.7
Cc1cccc(C(=O)N/C(=C/c2ccc(N(C)C)cc2)C(=O)O)c1	-7.2	0.8
COc1ccc(CN(C)C[C@@H]2Oc3c(NC(=O)c4ccncc4)cccc3C(=O)N([C@@H](C)CO)C[C@H]2C)cc1	-0.2	.
C[C@@H]1CN([C@H](C)CO)C(=O)c2cc(NC(=O)CCC(F)(F)F)ccc2O[C@H]1CN(C)Cc1ccccc1	0.0	0.4
CNC[C@@H]1Oc2ccc(NS(=O)(=O)c3ccc(OC)cc3)cc2C(=O)N([C@H](C)CO)C[C@@H]1C	8.2	0.0
COC(=O)c1ccc(C(=O)OC)c(NC(=O)c2ccccc2)c1	2.9	-0.7
O=C(CSc1nc2ccccc2c2nc3ccccc3n12)NCCc1ccccc1	-4.1	0.2
CSc1cccc(N2C(=O)C3CC=C(C)CC3C2=O)c1 (stereo not given)	-3.9	0.1
Cc1ccc(S(=O)(=O)Nc2cccc3c2O[C@H](CN(C)S(=O)(=O)c2ccc(C)cc2)[C@@H](C)CN([C@H](C)CO)C3=O)cc1	-4.2	.
NC(=O)OCC(O)COc1ccc(Cl)cc1 (stereo not given)	-0.2	-0.6
COc1ccc(-c2n[nH]c(=S)n2-c2ccccc2C)cc1OC	-6.4	-0.2

Of the compounds above, these contain a cyano group.
SMILES	BJeLR viab HTS	A1 inhib
N#Cc1cc2c(nc1SCC(=O)N1CCCCC1)CCCC2	-3.6	0.6
COC(=O)c1sccc1N/C=C(\C#N)S(=O)(=O)C(C)(C)C	-0.9	0.3
CN(C)c1ccc(-c2[nH]c(=S)[nH]c(=O)c2C#N)cc1	-1.9	-0.6
CSc1nc2cc(C)nn2c(-c2ccccc2Cl)c1C#N	-0.6	-0.3
